VDR inhibitor: blocks the human vitamin D receptor; Potency, µM, for inactives: max response, negative = inhibition, most hits filed as inhibitors; 0.93% of 400,000 active; AID 504847; P11473; VDR-SRC2-3 peptide fluorescence polarization, 2 h; active means well fitted inhibition curve with a large enough effect; inconclusive means small, poorly fitted or top-dose-only effect, or another doubt; inactive means no such curve, though single readings can be large or run the other way; further: series mostly up to about 120 µM
Target sequence (P11473 whole entry, looked up): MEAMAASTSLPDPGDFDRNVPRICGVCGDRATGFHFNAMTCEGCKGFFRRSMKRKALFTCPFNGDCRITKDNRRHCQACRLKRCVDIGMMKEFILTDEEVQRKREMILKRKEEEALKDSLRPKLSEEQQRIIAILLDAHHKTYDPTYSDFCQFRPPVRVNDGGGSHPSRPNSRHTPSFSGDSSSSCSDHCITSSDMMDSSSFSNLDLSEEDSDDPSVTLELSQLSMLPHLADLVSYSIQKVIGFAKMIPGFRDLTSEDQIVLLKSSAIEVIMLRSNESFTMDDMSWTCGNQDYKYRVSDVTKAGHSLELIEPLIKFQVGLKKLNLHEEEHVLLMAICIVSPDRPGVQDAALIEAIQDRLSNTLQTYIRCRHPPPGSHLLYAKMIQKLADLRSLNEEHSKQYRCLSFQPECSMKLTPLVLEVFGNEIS
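Measured by FP: displacement of SRC2-3 coactivator peptide from VDR by library compounds, following a two-hour ambient incubation.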
* marks the source's active call; other numbers are inactive results; ? = inconclusive; & = joins results of further samples. On the % scale 0 is the no-effect control and ±100 the full control effect; potency means the concentration at half of the fitted maximal effect.

Compound,VDR inhibitor
CCOc1ccc(C(F)(F)F)cc1NC(=O)COc1ccc(C(F)(F)F)cc1[N+](=O)[O-],11.4%
CCCCNC(=S)Nc1ccc2nc(N3CCN(CC)CC3)cc(C)c2c1,-2.8%
Cc1ccc(N2CC(C)Cn3c2nc2c3c(=O)[nH]c(=O)n2C)cc1 (centres undefined),-12.0%
COc1cc(C2C3=C(COC3=O)OC(C)(C)Oc3cc4c(cc32)OCO4)cc(OC)c1OC (centres undefined),14.5%
Cc1cc(Cl)c(S(=O)(=O)NC2CCCCC2)cc1OCC(=O)Nc1nncs1,13.8%
CC(C)COc1ccc(-c2nn(-c3ccccc3)cc2CO)cc1,-23.7%
Cc1ccc2nc3c(cc(C#N)c(=O)n3-c3nccs3)c(=O)n2c1,-10.3%
CC1C(=O)N2CCCc3cc(NS(C)(=O)=O)cc1c32 (centres undefined),9.7%
COc1cccc(NC(=O)N2C3CCCC2CC(NC(C)=O)C3)c1 (centres undefined),-5.3%
O=C(NC1CC(=O)N(c2ccc(F)cc2)C1)c1cccs1 (centres undefined),3.8%
CC1(C)CC(NC(=O)COc2cc3oc(=O)c4c(c3cc2Cl)CCC4)CC(C)(C)N1,15.5%
COc1ccc(NC(=O)CCNS(=O)(=O)c2cccc3nsnc23)cc1Cl,-16.0%
O=C1CSc2ccc(C(=O)O)cc2N1,9.2%
N#CC1=C(N)Oc2n[nH]c(-c3cccs3)c2C1c1cccnc1 (centres undefined),15.0%
Cc1cc(Br)cc2cn[nH]c12,2.4%
COc1ccc(CNC(=O)CCCc2nnc3n(C(C)C)c(=O)c4sccc4n23)cc1,6.1%
O=C(O)CC1S/C(=N\N=C/c2ccccc2)N(c2ccc(O)cc2)C1=O (centres undefined),18.0%
Cc1cc(NC(=O)/C=C/c2ccc(F)cc2)n(-c2nc3ccccc3[nH]2)n1,-14.1%
O=C(NNC(=S)NCc1ccc(Cl)cc1)c1ccc(Br)o1,-9.1%
CC(C)C[C@H]1COC(c2ccc(Br)cc2)=N1,-9.6%
CCOC(=O)C1=C(CCc2ccccc2)NC(=O)NC1c1ccc(C#N)cc1 (centres undefined),-20.4%
CCc1ccc(C2CC(=O)N(c3cccc(C(F)(F)F)c3)C3=C2C(=O)OC3)cc1 (centres undefined),2.7%
Cc1c([N+](=O)[O-])cc(C(=O)N2CCOCC2)cc1[N+](=O)[O-],4.8%
O=C(c1ccc(-c2ccccc2Cl)o1)N1CCC1,-9.7%
CCC(=O)Nc1ccc(NCc2cccs2)cc1,-11.4%
COc1ccc(CCCc2nnc(SCC(=O)Nc3cc(C)c(C)cc3Br)o2)cc1,7.0%
COc1ccc(-n2c(O)c(C=NC3CC3)c(=O)[nH]c2=O)cc1,-9.5%
CC(=O)Oc1ccccc1C1OC(=O)c2ccccc2N1C(C)=O (centres undefined),-2.0%
O=C(CSc1nnc(CNC(=O)c2cccs2)o1)c1ccccc1,10.8%
CCC(C)[C@H](NC(=O)NCCCOC(C)C)C(=O)OC (some centres undefined),-4.3%
c1ccc(CSC2=NCCS2)cc1,-9.7%
COc1ccc(-n2c(SC)nc(O)cc2=O)cc1,-7.9%
CCN(CC)CCNC(=O)CCn1c(=S)[nH]c2cc3c(cc2c1=O)OCO3,16.2%
Cc1sc2ncn(CC(=O)NCc3ccccc3)c(=O)c2c1C,?
O=c1cc(CSc2nnc(COc3ccccc3)n2-c2ccccc2)c2ccccc2[nH]1,-16.3%
CN(C)C(CNC(=O)CNC(=O)c1ccc(Br)cc1)c1ccccc1 (centres undefined),21.1%
COc1cc(C)c(S(=O)(=O)n2nnc3ccccc32)cc1C,?
COc1ccc(CNC(=O)c2cc(-c3cc(C)ccc3O)n[nH]2)cc1,-2.3%
Cc1sc2c(c1C)c(=O)nc1scc(CC(=O)O)n12,0.9%
CCOc1cc(C)nc(N2CCN(C3CCCCC3)CC2)n1,-0.7%
COc1ccccc1CN(C)C(=O)c1sccc1-c1ccccc1,20.4%
C[C@H](NC(=O)c1[nH]cnc1C(=O)Nc1ccc(Cl)cc1)c1ccccc1,7.5%
O=C(/C=C/c1ccccc1Cl)Nc1ccc(-c2nnc3n2CCCCC3)cc1,-6.0%
Cn1c(CCCOc2ccc(Cl)cc2Cl)n[nH]c1=S,-10.4%
COc1ccc(C(=O)NCCN2C(=O)S/C(=C\c3cccnc3)C2=O)c(OC)c1OC,11.1%
O=c1c2[nH]c3ccc(F)cc3c2ncn1CCN1CCN(Cc2ccccc2)CC1,6.0%
O=C(Nc1cc2c3c(c1)CC(=O)N3CCC2)c1ccc(Br)cc1,-4.3%
CS(=O)(=O)N1CCc2cc(C(=O)Nc3ccc(Cl)cc3)ccc21,-15.0%
c1csc(-c2nc(NCC3CCCO3)c3ccccc3n2)c1 (centres undefined),-19.2%&-6.8%
COc1ccc(CN(C)C(=O)CNC(=O)c2ccc3ccccc3c2)c(OC)c1,-5.4%

(more compounds)
Compound,VDR inhibitor
COCCn1c(=O)c(-c2cccs2)nc2cncnc21,-10.6%
CC(=O)c1sc(Nc2nc3cc4c(cc3s2)OCO4)nc1C,0.1%
CCOC(=O)CN(C(=O)COC(=O)C1(c2ccccc2)CC1)c1ccc(F)cc1,-1.8%
CCCCN(CC)C(=O)CN1C(=O)c2ccccc2C1=O,7.8%
CCN1CCN(CCNC(=O)CCCn2nc(C)c3c(C)n(-c4ccc(C)cc4)nc3c2=O)CC1,-14.6%
OC(CN1CCC(Cc2ccccc2)CC1)c1ccccc1 (centres undefined),12.3%
CC(=O)NC(CC(=O)OCC(=O)Nc1cc(S(=O)(=O)N2CCCCC2)ccc1C)c1ccccc1 (centres undefined),-15.7%
Cc1ccnc(NS(=O)(=O)c2ccc(N3C(=O)c4ccccc4C3=O)cc2)n1,9.2%
Cc1cccc(OC(=O)c2cccnc2)c1C,-26.8%
CCOC(=O)c1ccc(NC(=O)CSc2nc(-c3cccs3)cc(C(F)(F)F)c2C#N)cc1,-6.7%
CCCCNC(=O)CC1N=C2c3ccccc3N=C(SCC(=O)Nc3ccccc3C)N2C1=O (centres undefined),8.0%
COc1ccc(OC)c(-c2csc(NC(=O)C3COc4ccccc4O3)n2)c1 (centres undefined),28.0%
COc1ccc2[nH]c(C(=O)NCCCn3ccnc3)cc2c1,-15.7%
O=[N+]([O-])c1cc(-c2nc(-c3ccncc3)no2)ccc1Cl,-9.7%
CCCSc1nc2c(cnn2-c2ccccc2)c(=O)[nH]1,-3.0%
O=C(O)c1c2ccccc2cc2ccccc12,-10.5%&1.5%
Cc1cc(C)nc(NS(=O)(=O)c2ccc(NC(=O)CCCN3C(=O)c4ccccc4C3=O)cc2)n1,12.5%
Nn1c(SCc2nc3ccccc3[nH]2)nnc1C1CCCCC1,-10.5%
Nc1cccc2cc(S(=O)(=O)O)ccc12,-28.8%
CN1CCN(NC(=S)Nc2ccc(OC(F)F)cc2)CC1,5.4%
CCCCOC(=O)Cn1c(=N)n(CCN2CCOCC2)c2ccccc21,-19.7%
COc1ccc(CCN2CC(C(=O)Nc3ccc(S(C)(=O)=O)cc3)CC2=O)cc1OC (centres undefined),-4.3%
CCOc1ccc(NC(=O)Cn2nc(Cc3ccncc3)c3ccccc3c2=O)cc1,4.2%
CC1CCCCN1C(=S)Nc1ccc(OC(F)F)cc1 (centres undefined),?
CCOC(=O)c1cnc(-n2nc(C)cc2C)nc1Nc1ccc(C)cc1,-24.2%
O=C(Nc1ccc2c(c1)OCO2)C1CC(c2c(F)cccc2Cl)=NO1 (centres undefined),6.1%
CC(C)(C)NC(=S)NC1CC1,11.3%
Cc1cc(C)cc(N(C(C)C(=O)N2CCCCC2)S(C)(=O)=O)c1 (centres undefined),13.3%
C=CCOc1ccc(/C=C/C(=O)OCC(=O)NC(C)c2ccc(F)cc2)cc1 (centres undefined),-11.8%
Cc1nc(N2CCN(Cc3ccccc3)CC2)nc2c1C(=O)CC(C)C2 (centres undefined),-0.5%
O=C(CC(c1ccccc1)c1ccccc1)Nc1nn[nH]n1,3.5%
Cc1ccc(S(=O)(=O)N2C[C@@H]3[C@H]4CC[C@H](C4)[C@@H]3[C@@H](C)[C@@H]2c2ccn(Cc3ccccc3)c2)cc1,1.2%
Cc1cccc(Sc2c([N+](=O)[O-])ncn2C)c1,27.9%
FC(F)(F)c1ccccc1-c1cncnc1NCCN1CCOCC1,44.7µM*
Nc1cc2c(cc1Cl)N(Cc1ccccc1)C(=O)CO2,-0.2%
CN(C)CCCn1c(=O)n(Cc2ccco2)c(=O)c2c3c(sc21)CCCCC3,9.1%
Clc1ccc2nc(-c3ccncc3)cc(-c3ccccc3)c2c1,-0.5%
Cc1ccc(N(CCO)C(=S)Nc2ccccc2)cc1,21.8%
CC(C)C(=O)N[C@@H]1c2ccccc2CC[C@@H]1OCc1ccccc1,5.1%
CCc1ccc(OCC(=O)OCC(=O)NCCNC(=O)COC(=O)COc2ccc(CC)cc2)cc1,-7.7%
CCN(C(=O)c1cc2c(=O)oc3ccc(C)cc3c2s1)c1ccccc1F,-4.6%
COc1cccc(N2C(=O)CN(Cc3cc(OC)c(OC)c(OC)c3)C2=S)c1,9.0%
CCN(CC)CCNC(=O)c1ccccc1N,-5.9%
S=C(NCCc1ccc(Cl)cc1)NC1CCCCC1,-12.6%
O=C(COC(=O)c1cccnc1Nc1cccc(C(F)(F)F)c1)NCCN1C(=O)CSC1=O,19.1%
Cc1ccc(CNC(=O)c2cc3c(=O)n(Cc4cccnc4)ccc3nc2C)cc1,8.9%
CC(C)[C@H]1C(=O)Nc2ccccc2N1C(=O)N[C@@H](Cc1ccccc1)C(=O)N[C@H](C(=O)O)c1ccccc1,-5.3%
COc1ccc(CCNC(=O)C(=O)NCC(c2ccco2)S(=O)(=O)c2ccc(F)cc2)cc1 (centres undefined),-1.8%
Cc1ccc(NC(=O)N2CCN(C(=O)c3nsc4ccccc34)CC2)cc1C,3.2%
COc1ccc(NS(=O)(=O)c2cccs2)cc1S(=O)(=O)N1CCCCC1,-10.8%
O=C(NCc1cccnc1)c1ccc(Cl)c(S(=O)(=O)N2CCOCC2)c1,-21.2%

A portion of the library, so the mix of outcomes need not match the whole.
